Screening results deposited in PubChem by several laboratories.
CBX7 AlphaScr = CBX7 chromodomain binding inhibitors, primary screen, biochemical, AlphaScreen; AlphaScreen His6-CBX7 / biotin-H3K27me3 peptide binding; hits give low values; Chromobox protein homolog 7 (Homo sapiens), O95931; AID 1224903, 2016; normalised signal (fraction of DMSO) (no concentration beside the values); 66,000 tested, 1.1% active; in the data active = normalised signal below about 0.5;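 also: 100 nL library stock added to about 20 µL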
Target sequence (O95931 whole entry, looked up): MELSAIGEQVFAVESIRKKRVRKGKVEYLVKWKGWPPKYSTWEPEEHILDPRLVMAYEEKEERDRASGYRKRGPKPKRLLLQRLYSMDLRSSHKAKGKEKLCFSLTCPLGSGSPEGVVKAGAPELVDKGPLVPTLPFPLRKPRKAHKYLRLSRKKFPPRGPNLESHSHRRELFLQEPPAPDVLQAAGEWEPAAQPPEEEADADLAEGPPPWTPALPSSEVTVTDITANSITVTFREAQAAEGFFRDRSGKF
CBX7 AlphaScr z-score = also measured in CBX7 AlphaScr; calls as there; z-score; measured here: z-score of CBX7 signal; some inactives read as strong as hits; reference of the scale not given here;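 same signal on another scale; lower means less binding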
* = called active by the depositor.

SMILES	CBX7 AlphaScr	CBX7 AlphaScr z-score
CC(=O)C12c3ccccc3C(c3ccccc31)C1C(=O)N(c3ccc(C(=O)O)cc3)C(=O)C12 (stereo not drawn)	1.1	1.7
Cc1cccc(NC(=O)c2cc3c(n(-c4ccccc4)c2=O)CCCC3=O)c1	0.98	-0.4
Cc1cccc(-c2nc(C(=O)NC(C)C)c(C)o2)c1	0.98	-0.33
O=C(NCc1ccc(F)cc1)c1ccc2c(c1)N(Cc1ccccc1Cl)C(=O)CS2	1	1.1
O=c1cc(Cc2nnc(SCc3ccccc3Cl)n2-c2ccc(F)cc2)[nH]c(=O)[nH]1	1.2	0.42
O=C(c1cccc(NC2=NC3CS(=O)(=O)CC3S2)c1)N1CCN(c2ccc(Cl)cc2)CC1 (stereo not drawn)	0.79	-2.3
Cc1ccc(C)c(CN2C(=O)c3ccccc3S(=O)(=O)c3ccc(C(=O)NCc4ccccn4)cc32)c1	0.92	-2.2
CCc1ccccc1NC(=O)c1cnc2sccn2c1=O	1	0.15
COc1ccc(-c2nnc(Nc3ccc(OCC(N)=O)cc3)c3ccccc23)cc1	0.97	-0.074
CCOc1ccc(C2C(=O)N(C3CCCCC3)CC(=O)N2CCC2=CCCCC2)cc1OC (stereo not drawn)	0.92	-1.8
CCc1ccc(NS(=O)(=O)c2ccc3[nH]cc(C(=O)NCc4ccc(C)cc4)c(=O)c3c2)cc1	1	0.21
CCN1CCN(c2nc(C)nc3sc4c(c23)CCC4)CC1	0.57	-6.1
Cc1ccccc1Nc1c(-c2cccc(Cl)c2)nc2ccc(Cl)cn12	1.2	1.9
COc1ccc(-c2nn(C)c3sc(C(=O)NCc4ccc(F)cc4)cc23)cc1OC	1	0.7
COc1ccc(NC(=O)N2CCCCC2c2cccnc2)cc1 (stereo not drawn)	1.1	0.66
CCOc1ccc(CCNC(=O)c2ccc3nc(N4CCC(C)CC4)sc3c2)cc1OCC	0.95	-1.1
COc1ccc(-n2nc3c(c2NC(=O)c2ccc4c(c2)OCO4)CSC3)cc1	1.1	0.88
Cc1cc2c(cc1C)C(c1ccc(F)cc1)CC(=O)N2 (stereo not drawn)	0.94	-0.13
CCOC(=O)c1oc2ccccc2c1NC(=O)C(c1ccccc1)c1ccccc1	1	1.1
CCOC(=O)c1ccc(NC(=O)c2c(NCc3cccs3)sc3c2CCCCC3)cc1	0.62	-5.4
O=C(Nc1nc(-c2ccc(F)cc2)cs1)c1ccc(S(=O)(=O)N2CCCCC2)cc1	0.97	-0.61
Cc1ccc(C)c2[nH]c(=O)c(CCNC(=O)CCc3ccccc3)cc12	1.1	0.25
Cc1cccc(NC(=O)Cc2ccc(-n3c(=O)[nH]c4ccsc4c3=O)cc2)c1	0.97	-0.57
Cc1ccc(-c2csc(NC(=O)c3ccc(S(=O)(=O)N4CCCC4)cc3)n2)cc1	1.1	1.6
COc1ccc(OC)c(-c2cc(C(=O)NCc3ccc(F)cc3)no2)c1	1	0.63

Arranged by molar mass (ascending): some entries from above
SMILES	CBX7 AlphaScr	CBX7 AlphaScr z-score
Cc1cccc(-c2nc(C(=O)NC(C)C)c(C)o2)c1	0.98	-0.33
Cc1cc2c(cc1C)C(c1ccc(F)cc1)CC(=O)N2 (stereo not drawn)	0.94	-0.13
CCc1ccccc1NC(=O)c1cnc2sccn2c1=O	1	0.15
CCN1CCN(c2nc(C)nc3sc4c(c23)CCC4)CC1	0.57	-6.1
COc1ccc(NC(=O)N2CCCCC2c2cccnc2)cc1 (stereo not drawn)	1.1	0.66
COc1ccc(OC)c(-c2cc(C(=O)NCc3ccc(F)cc3)no2)c1	1	0.63
Cc1ccccc1Nc1c(-c2cccc(Cl)c2)nc2ccc(Cl)cn12	1.2	1.9
Cc1cccc(NC(=O)c2cc3c(n(-c4ccccc4)c2=O)CCCC3=O)c1	0.98	-0.4
COc1ccc(-n2nc3c(c2NC(=O)c2ccc4c(c2)OCO4)CSC3)cc1	1.1	0.88
COc1ccc(-c2nnc(Nc3ccc(OCC(N)=O)cc3)c3ccccc23)cc1	0.97	-0.074
COc1ccc(-c2nn(C)c3sc(C(=O)NCc4ccc(F)cc4)cc23)cc1OC	1	0.7
CC(=O)C12c3ccccc3C(c3ccccc31)C1C(=O)N(c3ccc(C(=O)O)cc3)C(=O)C12 (stereo not drawn)	1.1	1.7
O=c1cc(Cc2nnc(SCc3ccccc3Cl)n2-c2ccc(F)cc2)[nH]c(=O)[nH]1	1.2	0.42
O=C(Nc1nc(-c2ccc(F)cc2)cs1)c1ccc(S(=O)(=O)N2CCCCC2)cc1	0.97	-0.61
CCOC(=O)c1ccc(NC(=O)c2c(NCc3cccs3)sc3c2CCCCC3)cc1	0.62	-5.4
CCOc1ccc(CCNC(=O)c2ccc3nc(N4CCC(C)CC4)sc3c2)cc1OCC	0.95	-1.1
CCc1ccc(NS(=O)(=O)c2ccc3[nH]cc(C(=O)NCc4ccc(C)cc4)c(=O)c3c2)cc1	1	0.21
O=C(c1cccc(NC2=NC3CS(=O)(=O)CC3S2)c1)N1CCN(c2ccc(Cl)cc2)CC1 (stereo not drawn)	0.79	-2.3

Continuation.
SMILES	CBX7 AlphaScr	CBX7 AlphaScr z-score
O=C1NCCCC1C(=O)NCCc1c[nH]c2ccccc12 (stereo not drawn)	0.92	-0.95
CCOC(=O)c1c(NC(=O)COc2ccccc2Br)sc2c1CCCCC2	1.1	0.14
C=CCOc1ccc2nnc(-c3ccc(Br)cc3)n2n1	0.98	-0.6
CCN1CCN(C(=O)c2cn(C3CCCCC3)c(=O)c3c2c2ccccc2n3C)CC1	0.92	-1.9
Cc1c(C(=O)Nc2ccc(N(C)C)cc2)sc2nc(-c3ccc(F)cc3)cn12	0.98	-0.43
CCN(CC)C(=O)c1c[nH]c2ccc(S(=O)(=O)Nc3ccc(C(C)C)cc3)cc2c1=O	1.1	1.2
CCN1CCCC1CNC(=O)c1cc(Nc2ccc(C(C)C)cc2)nc2ccccc12 (stereo not drawn)	1.3	0.26
Cc1cc(Nc2ccc(Cl)c(Cl)c2)n2nc(C)nc2n1	1	0.34
CC1(C)CC(=O)c2cc(C(=O)NC(C)(C)C)c(=O)n(-c3ccccc3)c2C1	0.99	-0.36
CC1=Nc2cc(C(=O)NCCN(C)C)ccc2Sc2ccc(Cl)cc21	1	0.26
Fc1ccc(-c2cc(-c3nc(-c4ccccn4)no3)c3ccccc3n2)cc1	0.65	-3.9
Cc1ccc(OCc2nc(C#N)c(N3CC(C)OC(C)C3)o2)cc1 (stereo not drawn)	0.71	-1.8
CCOc1ccc(CNC(=O)c2cc3c(s2)-c2ccccc2OC3)cc1	1	0.6
CCOC(=O)c1c(C)n(C)c2ccc(OCC(O)Cn3nc(C)c(Br)c3C)cc12 (stereo not drawn)	1	0.059
COc1ccc(-c2nnc(Sc3cc(C(C)(C)C)c(O)c(C(C)(C)C)c3)c3ccccc23)cc1	0.79	-4.6
CCCOc1ccc(C(=O)Nc2cccc(NC(=O)c3cccc(Cl)c3)c2)cc1	1	2
Cc1cccc(NCC(O)Cn2c(C)c(C)c3ccccc32)c1 (stereo not drawn)	0.47*	-0.91*
CC1CC(C)CN(S(=O)(=O)c2cccc(-c3cn4cc(Cl)ccc4n3)c2)C1 (stereo not drawn)	1	0.27
COc1ccccc1CNC(=O)C1CCN(c2nc3ccccc3o2)CC1	1.1	0.096
O=C(CCn1nc(-c2ccc(Cl)cc2)c2ccccc2c1=O)Nc1ccc(Br)cc1	1	0.18
COc1cccc(CNC(=O)c2c[nH]n3c(=O)c(Cc4ccc(C)cc4)c(C)nc23)c1	0.98	-0.72
CCn1c(C(=O)N2CCCC(C(=O)NC(C)c3ccc4c(c3)OCCO4)C2)cc2sccc21 (stereo not drawn)	0.66	-1.5
O=C(NCCc1nc2ccccc2n1Cc1ccccc1Cl)c1ccccc1	1	0.04
O=C(NCc1cccnc1)c1csc2c1CCCC2	0.93	-1.7
Cc1onc(-c2ccccc2)c1C(=O)NCc1ccc(Cl)cc1	1.1	1.3

Three compounds from above, sorted by heavy-atom count, high to low:
SMILES	CBX7 AlphaScr	CBX7 AlphaScr z-score
COc1ccc(-c2nnc(Sc3cc(C(C)(C)C)c(O)c(C(C)(C)C)c3)c3ccccc23)cc1	0.79	-4.6
COc1ccccc1CNC(=O)C1CCN(c2nc3ccccc3o2)CC1	1.1	0.096
COc1ccc(OC)c(-c2cc(C(=O)NCc3ccc(F)cc3)no2)c1	1	0.63

Next compounds follow.
SMILES	CBX7 AlphaScr	CBX7 AlphaScr z-score
CCc1nc(N2CCOCC2)c(C#N)c2c1CCCC2	0.92	-0.93
O=C(Nc1ccc(F)cc1F)C1CCN(c2nc3ccccc3[nH]2)CC1	0.96	-0.5
O=C(O)CCc1nc(-c2ccc(Cl)cc2Cl)no1	1	0.72
COc1ccc(NC(=O)CCC(=O)Nc2ccc3nc(N4CCOCC4)cc(C)c3c2)cc1OC	1	1.1
CCOc1ccc2nc(N3CCC(C(=O)NCCc4ccc(OC)cc4OC)CC3)sc2c1	0.91	-0.12
Cc1c(C(=O)N2CCN(c3ccc(F)cc3)CC2)sc2ncnc(N3CCC(C)CC3)c12	0.82	-2.6
CCS(=O)(=O)CCCc1nnc(NC(=O)Nc2cccc(C(F)(F)F)c2)s1	0.94	-1.8
Cc1ccc2c(c1)c1c(n2CC(O)CNc2ccc(C)c(C)c2)CCCC1 (stereo not drawn)	0.64	-12
O=C(O)c1cccc(Nc2nc(-c3ccc(F)cc3F)cs2)c1	0.8	-2.2
CC(=O)NC(CCS(C)(=O)=O)C(=O)Nc1ccc(Oc2ccccc2)cc1 (stereo not drawn)	1	1.8
COc1ccc(OC)c(Nc2nc3ccccc3nc2NS(=O)(=O)c2ccc(Br)cc2)c1	0.82	-1.8
Cc1ccc(-c2nc(NC(=O)Nc3ccc(Cl)cc3)sc2C)cc1	1.1	1.3
COc1ccc(-n2cnc3cc(C(=O)N4CCCCC4)ccc32)cc1	1.1	1.7
CCCN(CCC)S(=O)(=O)c1ccc(C(=O)Nc2ccccc2-c2nc3ccccc3s2)cc1	1.1	2.1
COc1ccc(-c2cc(C(F)(F)F)nc(N3CCN(C)CC3)n2)cc1OC	0.98	-0.78

Only part of the results is shown; count on the stated rates, not on these rows.
